Screening data as filed in PubChem BioAssay.
Autofluor counter: flagged as autofluorescent in microsphere protease counterscreen | compound autofluorescence counterscreen, microsphere flow cytometry; hits give high values | fluorescence intensity (concentration not given with the values) | actives 3.1% (n = 360,000);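 active = at least 3 SD above the mean of all compounds, about 16000 in these data; inconclusive = too few beads counted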;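 note: 100 nL of 1 mM stock went into each well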
Sa RN4220 lethal: kills Staphylococcus aureus RN4220 | S. aureus RN4220 growth, OD600, 16 h | inhibition, % (test concentration not listed) | actives 0.33% (n = 330,000);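 active = z-score of -3 or lower and OD600 up to 0.18 on both plates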;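 note: plate controls were untreated cells for no effect and reference antibiotic for full effect; stock transfer was 100 nL into about 80 µL; one replicate is shown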
BJeLR lethal: kills HRASV12-expressing BJeLR cells; actives 0.17% (n = 300,000); BJeLR (HRASV12) viability, CellTiter-Glo ATP luminescence, 48 h; reference of the scale not given here; AID 1554; inhibition, % (no concentration beside the values);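 active = replicate mean above 50%; inconclusive = above 50% but judged a plate artefact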;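 note: 50 nL library stock added to about 25 µL; numbers are from one replicate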
PrP 5UTR inh: inhibition of PrP 5' UTR reporter expression. cell-based PrP 5' UTR mRNA reporter, plate reader. inhibition, % (concentration not given with the values). actives 0.35% (n = 340,000);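 active = every replicate at 50% or more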;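 note: 0 = median of the neutral control wells; tested in H4 reporter cells; numbers are from one replicate; inactives centre near -14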
Mtb hypoxia rep: Mtb hypoxia fluorescent reporter inhibition; M. tuberculosis hypoxia-regulated fluorescent reporter, fluorescence; AID 1159583; actives 0.1% (n = 300,000); fluorescence inhibition, % (concentration not given with the values);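 active = 35 to 45% if threefold the growth effect, above 45% if 1.5-fold the growth effect; inactive = the rest, general growth blockers included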;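 note: wells of about 50 µL received 100 nL stock; 0% = vehicle wells and 100% = reference inhibitor wells; whole bacteria with a GFP reporter of the hypoxia response; strong numbers were not always called active; many hits fall short of the cut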
ugtP null kill: growth inhibition of S. aureus ugtP deletion strain | S. aureus RN4220 ugtP deletion, OD600 growth, 16 h; some inactives read as strong as hits | growth inhibition, % (concentration not given with the values) | actives 0.54% (n = 330,000) | AID 1259309;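 active = z-score under -3 and OD600 up to 0.15 on both plates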;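 note: plate controls were untreated wells for no effect and antibiotic for full effect; wells of about 80 µL received 100 nL stock; the first replicate is given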
Mtb hypoxia rep growth: second read-out of Mtb hypoxia rep, no call of its own (marks repeat the call); growth inhibition, %; measured here: M. tuberculosis growth (absorbance);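 0% = vehicle and 100% = reference antibiotic; read after six days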
Starred values were filed as active, the others as inactive; ? = inconclusive; nt = not tested or not shown; & = joins results of further samples. An unsorted share of the library; 4% or so of the library scored in one or more.

molecule	Autofluor counter	Sa RN4220 lethal	BJeLR lethal	PrP 5UTR inh	Mtb hypoxia rep	Mtb hypoxia rep growth	ugtP null kill
COc1ccc(N(CC(=O)N2CCN(C)CC2)S(=O)(=O)c2ccccc2)cc1OC	9948	-3.1	-11	-19	2	5	-3
CC1(C)COC2(OC1)C(=O)Nc1ccccc12	4445	3.9	2	-23	-2	7	5
O=C(Oc1cccc2cccnc12)c1cccc(N2C(=O)C3C4CCC(C4)C3C2=O)c1 (stereo not drawn)	nt	11	-9	nt	1	11	10
COc1ccc(/C=N/NC(=O)c2cccnc2)cc1CN1CCc2cc(OC)c(OC)cc2C1C (stereo not drawn)	5039	nt	8	-21	nt	nt	nt
Cc1cccc(N(C(=O)c2ccc(CN3CCOCC3)o2)C(C(=O)NC2CCCCC2)c2ccc(F)cc2)c1 (stereo not drawn)	3264	5.5	-1	-2	0	0	-6
COc1cccc(CNC(=O)C2CCN(S(=O)(=O)c3ccc(C)cc3)CC2)c1	4728	0.8	-2	-12	13	0	1
C=CCNC(=S)N1CCN(CCN=Cc2c(C)[nH]n(-c3ccc([N+](=O)[O-])cc3)c2=O)CC1	2377	2.4	36	-13	-4	3	5
O=C(CNS(=O)(=O)c1cccc(Br)c1)NCC1CCCCC1	4286	1.6	2	-22	3	2	-5
COc1ccccc1C(=O)NC(=S)Nc1ccc(N2CCCC2)cc1	2958	3.4	-10	-37	-8	7	1
CCN(CCNC(=O)c1cccc(N2CCCC2=O)c1)c1ccccc1	3086	1.3	7	-19	nt	nt	-1
COC(=O)Cc1[nH]nc2c1C(c1cccc(OC)c1OC)C(C#N)=C(N)O2 (stereo not drawn)	9978	-0.2	-3	-5	5	2	-1
CC1=C(C(=O)OCc2ccccc2)C(c2ccco2)C2=C(CC(C)(C)CC2=O)N1 (stereo not drawn)	3470	2.5	0	-11	nt	nt	-8
COc1ccc(C)cc1NC(=O)CN1CCN(c2ccc(F)cc2)CC1	3206	9.6	3	-14	15	10	-3
COc1c(Br)cc(Br)cc1/C=N/NC(=O)c1cccnc1	3511	nt	0	-30	nt	nt	nt
CCCCn1c2c(c(=O)n(C)c1=O)C(CC(=O)OCC(=O)Nc1cccc(C(F)(F)F)c1)C(=O)N2 (stereo not drawn)	4805	2.0	1	-12	nt	nt	-5
COC(=O)CSc1nc(NC(C)(C)C)nc(N(C)C)n1	3389	3.8	nt	-26	5	4	21
COc1ccc(OCC(=O)N2CCC(Cc3ccccc3)CC2)cc1	5497	2.3	-1	-6	1	8	3
Cc1ccccc1NC(=O)C1c2cccc[n+]2CC(=O)N1c1c(C)cccc1C (stereo not drawn)	4668	14	7	-28	4	3	-10
CC1(C)CC(=O)/C(=C(/O)Cc2ccccc2)C(=NCCc2ccccc2)C1	2607	nt	-13	2	nt	nt	nt
CC(C)N1CC2=C(C1=O)C(c1ccc(O)cc1)NC(=O)N2C (stereo not drawn)	4645	5.7	-7	-13	5	4	0
Cc1ccc(S(=O)(=O)c2c(C)cc(C)nc2N2CCCC2)cc1	4797	2.3	-9	-29	-1	0	-4
Cc1cccc(Nc2ncnc3c2cnn3C)c1	1987	15	-1	-1	8	-3	8
COc1cccc(N(CC(=O)NC(C)(C)C)C(=O)C2CSC(=O)C2)c1 (stereo not drawn)	20419*	-3.1	-8	-12	3	6	-7
Cc1ccc(OCC(=O)NCCC2=CCCCC2)cc1	2476	6.9	-9	-17	9	9	1
CCCCn1c(N)c(N(CC)C(=O)c2ccco2)c(=O)[nH]c1=O	3958	6.8	nt	-11	-4	2	5
CCCC(c1nnnn1Cc1ccc2c(c1)OCO2)N1CCC(C(N)=O)CC1 (stereo not drawn)	4660	5.4	-10	-12	6	-2	10
Cc1cc(C(F)(F)F)cc(NNC(=O)NC(=O)c2c(F)cccc2Cl)n1	5578	1.1	-4	-14	-4	3	-1
CCC(=O)N(CC(=O)Nc1sc(C)c(C)c1C(N)=O)C1CCCCC1	4210	5.7	1	-20	0	5	-4
COC(=O)C1CN(C(=O)COc2ccc(C)cc2)c2ccccc2O1 (stereo not drawn)	3890	1.8	2	-6	11	-3	-3
CN1CCN(C(=O)C(=Cc2ccc3c(c2)OCO3)NC(=O)c2cccs2)CC1	nt	-2.0	nt	nt	-6	10	-1
CC(C)C1CC(CCNCc2ccc(N(C)C)cc2)(c2ccccc2)CCO1 (stereo not drawn)	11202	nt	-2	12	nt	nt	nt
O=C(CC(=O)c1cc(Cl)ccc1O)c1ccccc1	11483	100*	-3	-40	4	12	100*
CCN1CC(CN(C)Cc2cn(-c3ccc(C)cc3)nc2-c2cccc(C)c2)CC1=O (stereo not drawn)	2616	-2.5	15	-5	-4	-1	14
Cc1ccc(Cn2c(NCCc3ccccc3)nc3c2c(=O)n(C)c(=O)n3C)cc1	12783	5.9	25	-4	18	5	3
c1ccc2c(N3CCCCC3)nc(N3CCCC3)nc2c1	8374	3.5	13	9	15	17	-1
Cc1ccc(C)c(NS(=O)(=O)c2c(C)ccc3nsnc23)c1	3425	8.4	3	-4	nt	nt	-10
CCOc1ccc(NC(=O)/C(C#N)=C/c2ccc(N3CCCC3)c(C)c2)cc1	7738	3.3	nt	-23	5	0	-4
CC(Nc1cc(=O)n(C)c(=O)[nH]1)c1ccccc1 (stereo not drawn)	2239	-1.3	8	-20	nt	nt	12
N#Cc1c(SC(C(=O)O)c2ccccc2)nc2c(c1-c1cccs1)CCCC2 (stereo not drawn)	4206	17	-2	-7	5	-3	14
Cc1ccnc(NC(=O)c2cccc(S(=O)(=O)N3CCCC3)c2)c1	4353	2.4	17	-22	4	-2	6
CCOC(=O)N1C2=NC(C(=O)OC)=C(C(=O)OC)C3N(C)c4ccc(OC)cc4[C@]23CC1C(=O)OC (stereo partly drawn)	nt	8.8	nt	nt	12	-4	0
COc1ccc(C(=O)c2ccc(OC)c(Br)c2)cc1Br	2186	1.4	-11	0	9	4	3
O=C(NC1CCN(Cc2ccccc2)CC1)C12CC3CC(CC(C3)C1)C2	3383	1.9	0	-14	0	0	5
O=C(O)Cn1cc(/C=C2\C(=O)NC(=O)N(c3ccc(Cl)cc3)C2=O)c2ccccc21	3526	-0.1	7	-15	5	-4	4
COc1ccccc1C(=O)Nc1nnc(-c2ccco2)s1	8085	23	-2	-228	3	7	-6
COc1cccc(C=NN2CCN(c3ccncc3S(=O)(=O)N3CCCCC3)CC2)c1	nt	1.6	nt	nt	2	8	-1
CC(=NNC(=O)c1ccc(O)cc1O)c1cccnc1	nt	3.2	nt	nt	8	6	3
O=C(N/N=C/c1sc(=O)n(Cc2ccc(Br)cc2)c1Cl)c1ccco1	4087	nt	10	-25	nt	nt	nt
Cc1cc(=O)[nH]c(NCCO)n1	2639	nt	6	-28	nt	nt	nt
COc1ccc(-n2ncc3c(SCC(=O)NNC(C)=O)ncnc32)cc1	3987	4.7	5	-20	11	7	5
O=C(COc1ccccc1)NC1CCSc2ccccc21 (stereo not drawn)	5885	-1.0	2	-20	14	17	1
O=C(NNc1ccccc1Br)C(O)(c1cccc(C(F)(F)F)c1)c1cccc(C(F)(F)F)c1	2455	24	4	-27	-7	-9	3
CC(C)(C)NC(=O)CN(Cc1cccs1)C(=O)c1csnn1	3612	-3.9	-10	-13	0	-10	-6
Cc1ccc2[nH]c(C(=O)N3CCC(C(N)=O)CC3)cc2c1	3849	1.1	-5	10	14	11	8
CCCNc1ccc(C(=O)OCC)cc1[N+](=O)[O-]	4062	15	1	-68	5	6	9
O=C(CSc1ncn[nH]1)N/N=C/c1ccc(C(F)(F)F)cc1	5975	nt	-4	-16	nt	nt	nt
COc1ccc(CNC(=O)C(C)Sc2ccc(S(=O)(=O)N3CCOCC3)cn2)cc1 (stereo not drawn)	5325	3.0	nt	-18	-1	2	4
CC(C)(C)N=C1SCC(C)(/C=N/O)S1 (stereo not drawn)	4173	nt	-7	-1	nt	nt	nt
CC(COc1ccc(C=Cc2ccccc2)cc1)[N+](C)(C)C (stereo not drawn)	nt	-10	nt	nt	9	5	-8
CCOc1ccc(-c2nc(C#N)c(NC3CC3)o2)cc1	8398	1.8	1	-47	3	5	-5

(next part)
molecule	Autofluor counter	Sa RN4220 lethal	BJeLR lethal	PrP 5UTR inh	Mtb hypoxia rep	Mtb hypoxia rep growth	ugtP null kill
CSc1sc(C)cc1/C=N/O	2507	nt	-5	-11	nt	nt	nt
CCOC(=O)C1C2COc3ccc(Br)cc3C2N2C(=O)N(c3cccc(F)c3)C(=O)[C@]12C (stereo partly drawn)	nt	-4.3&3.1	nt	nt	-9&7	-7&9	2&6
CCc1ccccc1NC(=O)CC1CS(=O)(=O)CC1CC(=O)Nc1ccccc1CC (stereo not drawn)	2689	3.7	-7	-10	-1	-4	3
COc1ccc(Br)cc1C(=O)Nc1ccc(O)cc1	7403	3.7	14	4	-3	14	17
CCOc1ccc(N(Cc2ccccc2F)C2=NC3CS(=O)(=O)CC3S2)cc1 (stereo not drawn)	6015	-6.3	1	-15	4	15	7
COC(=O)NN=Cc1ccc(-c2cc(Cl)cc(Cl)c2)o1	nt	1.2	nt	nt	0	6	-3
Cc1cccc(CCN2C(Nc3ccccc3)=NC[C@@H]2C)c1	3089	-7.8	nt	-10	7	10	5
COC(=O)c1ccc(OCc2nc(N)nc(N3CCOCC3)n2)cc1	3528	4.3	-5	-8	nt	nt	9
c1cncc(CNC2=NCCCCC2)c1	4553	0.4	-9	-34	21	10	2
Cc1nnc(N(Cc2ccco2)C(=O)c2cccc(C#N)c2)s1	3954	3.8	0	-13	nt	nt	-1
O=C(CSc1nnc(C2CC2)n1C1CC1)c1ccccc1F	4492	0.1	nt	-3	-2	3	-2
C=CCOC(=O)CCCCCCCC	5191	4.7	nt	-23	9	4	1
CC(C)NC(=O)Cn1c(SCC(=O)N2CCCc3ccccc32)nc2ccccc21	11262	3.8	8	nt	10	11	7
COc1ccc(-n2nc(C(=O)NCC(=O)N3CCCC(C)C3)c3ccccc3c2=O)cc1 (stereo not drawn)	3334	0.2	-11	2	6	0	0
Cc1cc2occ(CC(=O)N(C)CC(=O)Nc3ccc(F)cc3)c2cc1C	?	3.0	3	-7	0	-12	-6
COc1ccc(/C=N/Nc2ncnc(Cl)c2N)cc1OC	2179	nt	-5	-20	nt	nt	nt
Cc1cc(C)cc(NC(=S)Nc2cccc3ccccc23)c1	5833	-2.2	0	-13	-6	1	6
Cc1ccccc1NS(=O)(=O)c1ccc(C(=O)NCC2CCCO2)cc1 (stereo not drawn)	6118	3.1	5	-11	4	1	5
COC(=O)c1oc2nc(C)cc(C)c2c1N	?	5.1	-5	-19	8	14	-7
O=c1nc2ccccn2c2ccc(S(=O)(=O)N3CCCCC3)cc12	4901	2.8	-8	-10	-7	-3	0
NC(=O)NC(c1ccccc1)c1ccccc1F (stereo not drawn)	23015*	4.1	7	6	7	11	6
Cc1[nH][nH]c(=O)c1C=NCc1cccc(C(F)(F)F)c1	2246	-2.7	-6	-17	0	-3	8
COc1ccc(CNC(=O)C2CC(=O)N(C3CCCCC3)C2)cc1 (stereo not drawn)	5690	3.3	-2	4	-1	-3	10
Cc1cc(C)c(S(C)(=O)=O)c(Oc2ccc(C(C)(C)C)cc2)n1	?	-17	0	17	-2	-2	7
CC[C@]12c3[nH]c4ccc(Cl)cc4c3CCN1C(=O)[C@@H](CC(=O)NCC13CC4CC(CC(C4)C1)C3)C[C@@H]2C(=O)N1CCN(C(=O)C2CC2)CC1	4180	-17	nt	-18	9	2	-7

Reformatted as labelled records: 2 of the compounds above.
mol: NC(=O)NC(c1ccccc1)c1ccccc1F (stereo not drawn)
  Autofluor counter: 23015*	Sa RN4220 lethal: 4.1	BJeLR lethal: 7	PrP 5UTR inh: 6	Mtb hypoxia rep: 7	Mtb hypoxia rep growth: 11	ugtP null kill: 6
mol: Cc1[nH][nH]c(=O)c1C=NCc1cccc(C(F)(F)F)c1
  Autofluor counter: 2246	Sa RN4220 lethal: -2.7	BJeLR lethal: -6	PrP 5UTR inh: -17	Mtb hypoxia rep: 0	Mtb hypoxia rep growth: -3	ugtP null kill: 8
